gsp antag = gsp mutant antagonism. AID 624288. Potency, µM (highest dose often 76.9 µM), for inactives: at the top dose activity change, negative = inhibition, usual class: inhibitors. gsp-mutant cells, cAMP HTRF, 30 min; control for the full effect not named in the record. 340,000 tested, 0.4% active; active = falling curve of any shape with a large fitted effect; inconclusive = falling curve, mostly with a smaller effect; inactive = flat or rising curve; cell line not stated here;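 note: intracellular cAMP measured with PDE inhibitor Ro 20-1724 present during compound exposure; potency is the fitted concentration of half-maximal effect; % is set by controls: 0 for no effect and ±100 for the full control effect; nearly all actives have a fitted effect of over 65% in size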
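Measurement of cellular cAMP by homogeneous time-resolved fluorescence following a 30 min compound exposure at 37C. The PDE inhibitor […] was present throughout; the assay buffer was DPBS with 0.05% BSA and 0.005% Tween 20.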
PINK1 modulator = modulators of PINK1 expression | 410,000 tested, 0.2% active | Potency, µM (highest dose often 76.6 µM), without a hit: top-dose activation (PINK1 increase), actives largely listed as activators | PINK1 immunofluorescence, high-content cytometry, 24 h; active = well fitted activation curve with a large enough effect; inconclusive = small, poorly fitted or top-dose-only effect; inactive = flat fitted curve, though single readings scatter; cell line not stated here;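 note: potency is the fitted concentration of half-maximal effect; % of control where 0% means no effect; nearly all actives have a fitted effect of over 65% in size; a mitochondrial uncoupler was the plate control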
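A stable cell line was treated with compounds at 5 concentrations for 24 hours, with CCCP as control. PINK1 levels and mitochondrial localization were measured by immunofluorescence with mitochondrial, cell and nuclear markers after fixation, read by laser-scanning cytometry.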
D2 ag = human D2 receptor agonism in beta-arrestin assay | activation, % (no concentration beside the values) | DiscoveRx PathHunter D2 beta-arrestin, luminescence, 90 min; 100% = 57 uM dopamine signal | 360,000 tested, 0.084% active | P14416; in the data active = activation above about 40%; inconclusive = about 15% to 40%; inactive = below about 15%; note: compound concentration not given in the record; the text of the record calls up to 30% inactive
Target sequence (P14416 whole entry, looked up): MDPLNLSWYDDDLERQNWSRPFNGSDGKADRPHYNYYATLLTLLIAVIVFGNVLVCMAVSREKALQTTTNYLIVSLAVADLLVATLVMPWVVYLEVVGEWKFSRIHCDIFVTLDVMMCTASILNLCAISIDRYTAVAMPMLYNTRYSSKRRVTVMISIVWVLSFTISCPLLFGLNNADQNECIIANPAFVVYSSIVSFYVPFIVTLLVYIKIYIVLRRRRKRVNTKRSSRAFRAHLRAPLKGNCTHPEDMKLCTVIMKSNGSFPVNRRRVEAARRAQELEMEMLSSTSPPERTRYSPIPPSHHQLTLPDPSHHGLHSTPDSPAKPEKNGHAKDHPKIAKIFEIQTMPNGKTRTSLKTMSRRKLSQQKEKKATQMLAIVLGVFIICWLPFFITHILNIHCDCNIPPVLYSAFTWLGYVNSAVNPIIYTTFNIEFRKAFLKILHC
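Agonist mode: compounds alone added to overnight-plated D2 PathHunter cells for 90 min at 37 C, with 57 uM final dopamine (EC100) defining full response. Beta-arrestin recruitment detected by chemiluminescent reagent, read after 1 h at ambient temperature.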
gsp agonist = activates gsp, the McCune-Albright syndrome mutation. gsp mutant cells, cAMP HTRF, 30 min; control for the full effect not named in the record. AID 624287. Potency, µM (top dose mostly 76.9 µM), without a hit: top-dose activation (cAMP increase), actives largely listed as activators. 340,000 tested, 0.13% active; active = well fitted activation curve with a large enough effect; inconclusive = small, poorly fitted or top-dose-only effect, or another doubt; inactive = no such curve, though single readings can be large or run the other way; cell line not stated here;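 note: phosphodiesterase inhibitor Ro 20-1724 added with compounds to block cAMP breakdown; potency is the fitted concentration of half-maximal effect; nearly all actives have a fitted effect of over 60% in size; about a fifth of the inactives were tested at one dose only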
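Cells in DMEM/10% FBS with G418 were pretreated with compounds in DMSO plus […] (300 uM stock) for 30 min at 37C. cAMP was measured by HTRF (cAMP-d2 plus anti-cAMP antibody-K) after 30 min at room temperature.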
ClpP mod = qHTS Assay for Activators of ClpP; 340,000 tested, 1.9% active; purified B. subtilis ClpP, FRET peptide cleavage, 20 min; ATP-dependent Clp protease proteolytic subunit (Bacillus subtilis (strain 168)), P80244; AID 651965, 2013; Potency, µM (titrated, usually from 57.5 µM), for the others: top-dose activity change, negative = active; active = well fitted falling curve with a large enough effect; inconclusive = small, poorly fitted or top-dose-only effect; inactive = no such curve, though single readings can be large or run the other way; note: potency is the fitted concentration of half-maximal effect; the source files actives as falling curves though it sought activators and does not explain the sign; nearly all actives have a fitted effect of over 65% in size; many hits overshoot -100%
Target sequence (P80244 whole entry, looked up): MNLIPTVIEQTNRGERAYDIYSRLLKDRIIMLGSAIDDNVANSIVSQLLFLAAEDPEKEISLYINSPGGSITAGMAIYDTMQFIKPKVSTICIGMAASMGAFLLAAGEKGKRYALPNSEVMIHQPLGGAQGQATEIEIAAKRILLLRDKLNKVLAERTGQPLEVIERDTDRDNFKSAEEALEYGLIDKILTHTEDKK
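Buffer: 100 mM Tris/HCl pH8, 100 mM KCl, 0.05% low protease BSA, 2.5% glycerol, 0.01% Tween-20. ClpP 10 microg/mL final; 20 min RT; delta FRET normalized to ADEP and DMSO controls.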
Sfp inh = inhibitors of Bacillus subtilis Sfp phosphopantetheinyl transferase | Potency, µM, without a hit: max response, negative = inhibition, actives largely listed as inhibitors | 310,000 tested, 3.5% active | Biochemical Sfp PPTase activity, qHTS; active = well fitted inhibition curve with a large enough effect; inconclusive = small, poorly fitted or top-dose-only effect, or another doubt; inactive = no such curve, though single readings can be large or run the other way;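 note: the enzyme is Sfp with the accession as filed and its product quenches rhodamine fluorescence; potency is the fitted concentration of half-maximal effect; 0% = enzyme reaction without inhibitor and -100% = no enzyme wells; top concentration of the series not given in the record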
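Fluorescence-quenching assay with 15 nM Sfp, 5 uM rhodamine-CoA and 12.5 uM BHQ-2-labelled ybbR peptide in pH 7.6 Hepes/MgCl2 buffer. Enzyme was pre-incubated with compound for 15 min at room temperature. Rate was taken from the 30-min fluorescence change (525/598 nm).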
Menin-MLL FL inh = menin-MLL binding inhibition, fluorescein peptide | Fluorescence polarization, fluorescein-MLL peptide displacement from menin | FP activity change, % at 61.4 µM | 290,000 tested, under 10 active; inconclusive = falling polarisation curve, or a change in total fluorescence; inactive = total fluorescence flat and polarisation flat or rising; no compound was filed as active; the % refers to the polarisation; negative = inhibition;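 note: % of control where 0% means no effect; inhibitors lower the polarisation; unlabelled MLL peptide was the positive control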
* = called active by the depositor; ? = inconclusive; / = no result given; & = joins results of further samples; [ ] = another dose, or the depositor's remark. An unsorted share of the library. Share with any hit: about 5.1%.

Compound	gsp antag	PINK1 modulator	D2 ag	gsp agonist	ClpP mod	Sfp inh	Menin-MLL FL inh
Cc1cc(C)c(S(=O)(=O)NCc2cccnc2)cc1C	3%	0.6%	3.3	4%	1.1%	9%	-1.6
CC(C)C(C)NC(=O)CN1C(=O)NC2(CCc3ccccc3C2)C1=O (stereo unspecified)	6%	0.2%	0.6	-24%	/	11%	-1.8
COc1cccc(NC(=O)CSc2nnc3ccc(-c4ccncc4)nn23)c1	10%	1.3%	-2.4	-19%	0.4%	/	/
CC(=O)c1ccc2c3c(cc(C)c2c1)CCCC3	-11%	6.0%	0.8	-9%	/	/	/
COC(=O)c1ccc(OC(=O)C2CC(=O)N(c3ccc(C)cc3C)C2)cc1 (stereo unspecified)	-6%	0.7%[38.3 µM]	-2.2	-14%	-0.8%	18%	5.0
C/C(=N\NC(=O)Cn1nc(C)c([N+](=O)[O-])c1C)c1ccc(Cl)s1	10%	10.0%	-0.1	?	/	0%	3.3
Cc1ccc(C(=O)N2CCCC(C(=O)c3ccc(Oc4ccccc4)cc3)C2)cn1 (stereo unspecified)	-19%	1.1%	0.9	4%[15.4 µM]	/	5%	-0.9
Cc1ccc(NC(=O)c2c(Cl)nc3ccccn23)cc1	8%	6.4%	-2.9	-26%	/	0%	-3.8
O=C(NCCC1CCCCN1S(=O)(=O)c1cccs1)C(=O)Nc1ccc(F)cc1F (stereo unspecified)	11%	-0.6%	6.1	15%[15.4 µM]	-2.4%	/	/
Nc1nonc1-n1nnc(C(=O)N/N=C/c2c[nH]c3ccccc23)c1-c1ccccc1	32µM*	1.1%	2.5	8%	-1.5%	3%	/
CCOC(=O)C1C(=O)NC(N2CCOCC2)=NC1C(C)C (stereo unspecified)	1%	-1.6%	-3.2	21%	0.1%	4%	4.3
O=C(N/N=C/c1ccco1)c1cc(-c2cccc3ccccc23)n[nH]1	-3%	-5.8%	-1.8	-7%	-2.8%	11%	5.7
C=CCN1C(=O)/C(=C/c2ccc(OCC(=O)O)cc2)S/C1=N/c1nccs1	-4%	1.8%	-1.6	0%	-7.0%	-9%	/
Cc1csc(=O)n1CC(=O)OCC(=O)Nc1cc(Cl)ccc1[N+](=O)[O-]	3%	4.1%	6.2	1%	-1.5%	5%	-0.3
CCOc1ccccc1C(=O)Nc1nccs1	3%	-1.5%	5.8	-4%	-2.4%	0%	-1.2
CCOc1cc(C(=O)O)cc(Cl)c1OC	2%	1.0%	0.6	4%	-2.9%	19%	7.0
CC(=Nc1ccccc1C)C1=C(O)CSC1=O	1%	/	-5.3	-72%[inhibitor]	-2.4%	-17%	5.3
Fc1ccc(SCCc2ccccn2)cc1	14%&-10%	1.2%&1.2%	-2.8&-1.2	10%&-5%[15.4 µM]	/	15%&1%	-1.4&1.9
COc1ccc(/C=N/N(C(C)=O)c2nc(-c3ccc(C)cc3)cs2)cc1	9%	7.5%	-1.0	-1%	0.6%	-6%	5.4
COc1cc(NC(=O)c2ccc3c(c2)OCCO3)ccc1NC(=O)c1ccccc1Cl	-20%	3.5%	-1.3	18%	-0.4%	11%	/
CCCCNC(=O)[C@H]1C[C@H]1[C@@H](O)[C@H](CO)NC(=O)[C@H](CC(C)C)NC(=O)OC(C)(C)C	?	-0.1%	-0.2	/	-0.6%	5%	3.0
Cn1c(SCC(=O)c2ccc(O)c(O)c2)nnc1-c1cccs1	-5%	-0.4%	-2.2	-41%	0.6%	-5%	0.3
CC(=O)Nc1nc2n(n1)C(c1ccccc1)C=C(c1ccccc1)N2 (stereo unspecified)	0%	/	0.5	?	28µM*	?	?
O=C(OCCN1CCCCC1)c1ccc(O)cc1	-4%	6.7%[38.3 µM]	-0.4	10%	1.4%	-4%	0.5
CC(NC(=O)c1ccc2c(=O)n3c(nc2c1)CCC3)c1ccc(S(N)(=O)=O)cc1 (stereo unspecified)	13%	1.1%	-3.0	-1%[15.4 µM]	-1.1%	/	/
O=S(=O)(NC1CCCCC1N1CCN(c2ccccc2F)CC1)c1ccccc1 (stereo unspecified)	-14%	1.5%	-1.9	-25%	-3.1%	19%	-0.2
CC(=O)N1CCn2c3c(c(=O)c4cc(C)ccc42)CCC31 (stereo unspecified)	-8%	0.6%	-5.3	-16%[15.4 µM]	-3.6%	-20%	-3.3
O=C(Oc1ccc(C(=S)N2CCC(O)CC2)cc1)c1ccc(Cl)cc1	10%	8.3%	-0.7	-6%	/	1%	-0.8
COc1ccc2c(Cl)c(C(=O)NN)sc2c1	7%	/	1.7	-24%	0.4%	-4%	0.2
Cc1ccc(S(=O)(=O)Nc2ccc(N3CCCCC3)cc2)cc1	-8%	0.6%	-0.7	-1%	/	4%	0.1
CO[C@H]1O[C@H](CBr)[C@@H](OC(=O)c2ccccc2)[C@H](O)[C@H]1O	14%	-0.7%	-1.6	-8%[15.4 µM]	0.4%	/	/
O=C(Nc1nc2ccc(S(=O)(=O)N3CCCC3)cc2s1)C1CCCCC1	-6%	6.1%	3.5	-17%	-2.5%	-87%	6.3
COc1ccc2nc3ccccc3nc2c1N	?	-0.8%	14	9%[15.4 µM]	/	4.5µM*	4.7
CC(=O)N1CCC[C@@]2(CCN(Cc3cc(C(F)(F)F)cc(C(F)(F)F)c3)C2)C1	/	-0.3%	/	/	/	6%	2.8
CCOC(=O)N1CCN(C(=O)CN(C)S(=O)(=O)c2ccc(Cl)cc2)CC1	-34%	-0.1%	-4.0	18%[15.4 µM]	/	19%	-2.3
CCCn1c(=S)[nH]c2ccccc2c1=O	5%	3.7%	-3.4	3%	/	23%	0.6
Cc1ccn(CC(=O)N2CCCC(N3CCN(c4ccc(F)cc4)CC3)C2)n1 (stereo unspecified)	17%	-1.2%	-4.9	-8%	-0.5%	9%	-0.2
CNC(=O)c1ccc(-c2ccc(Cl)c(Cl)c2)s1	-8%	1.5%	-0.3	-33%[inhibitor]	/	1%	-3.1
O=C(Nc1cccc(Cl)c1)c1ccc(F)c(S(=O)(=O)NCc2ccc3c(c2)OCO3)c1	-28%	?	5.1	?	-0.4%	7%	3.4
O=C(/C=C/c1ccco1)NC(=S)N1CCCCC1	-4%	0.4%	0.1	0%[15.4 µM]	/	-9%	/
CC(C)Cn1c(S(=O)(=O)O)nc2ccccc21	3%	0.0%	0.2	1%[15.4 µM]	/	3%	-2.3
CCc1nc2cc(C)nn2c2nc3ccccc3n12	11%	-0.7%	-1.5	7%	0.3%	-2%	-0.1
Cc1onc(-c2c(F)cccc2Cl)c1C(=O)Nc1nnc(-c2ccccc2)s1	?	-0.7%	0.5	14%	32µM*	29%	-0.3
CNS(=O)(=O)c1cccc(C(=O)OCC(=O)N2CCCC2)c1	8%	1.8%	-3.0	8%[15.4 µM]	/	17%	1.2
Cc1ccc(NC(=O)C2C3CCCC2C3c2ccccc2)cc1 (stereo unspecified)	6%	3.0%	0.1	-1%	-3.5%	8%	4.9
COCCN=C1N[C@@H](c2ccccc2)C(C(=O)OC)=C(C)N1Cc1ccccc1	10%	-0.6%	-0.4	-6%	-2.9%	11%&3%	?
CN(C)C(=O)C(NC(=O)c1ccccc1)=C(Cl)Cl	-3%	1.7%	-1.7	2%	-1.6%	9%	2.7
O=C(CCc1nc2ccccc2c(=O)[nH]1)NCc1ccccn1	1%	-1.9%	-5.3	7%	/	6%	0.4
O=C(N/N=C/c1cc2ccccc2nc1Cl)c1ccncc1	/	1.0%	3.5	21%[15.4 µM]	/	28%	-2.0
CCCCC(NC(=O)Cc1c(C)c2cc3c4c(oc3cc2oc1=O)CCCC4)C(=O)O (stereo unspecified)	-3%	-2.0%	-1.4	-1%[15.4 µM]	1.6%	-19%	-1.1
Cc1cn(C2OC(COC(=O)c3ccccc3)C(OC(=O)c3ccccc3)C2OC(=O)c2ccccc2)c(=O)[nH]c1=O (stereo unspecified)	0%	-0.7%[38.3 µM]	-0.4	-5%	-0.7%	-10%	1.4
COc1ccccc1NS(=O)(=O)c1cccc(C(=O)N/N=C/c2c(CO)cnc(C)c2O)c1	-5%	-1.0%	-3.1	10%	-9.2%	/	/
O=C1Nc2ccccc2N(O)N1c1ccc(S(=O)(=O)N2CCCCCC2)cc1	-8%	0.5%	1.4	-3%	-1.3%	8%	3.0
Cc1cc(=O)oc2cc(Oc3ncccc3[N+](=O)[O-])ccc12	-1%	-0.1%	-4.9	-5%[15.4 µM]	-1.0%	-5%	-2.4
O=C(CCNS(=O)(=O)c1ccc(Br)s1)Nc1ccc(Cl)cc1	-8%	1.7%[38.3 µM]	5.2	-3%	0.8%	16%	3.0
CCOc1ccccc1C(=O)N1CCN(C(c2ccccc2)c2ccccc2)CC1	5%	/	0.4	-16%	-0.6%	?	-0.7

Other entries:
Compound	gsp antag	PINK1 modulator	D2 ag	gsp agonist	ClpP mod	Sfp inh	Menin-MLL FL inh
O=C(Nc1c[nH]c(=O)[nH]c1=O)c1cc([N+](=O)[O-])cc([N+](=O)[O-])c1	5%	1.1%	?	-3%	1.9%	2%	0.8
O=C(c1cc(COc2ccccc2)on1)N1CCCC(CN2CCOCC2)C1 (stereo unspecified)	6%	1.7%	6.4	-1%	-1.0%	4%	/
CC(=O)N1CCN(Cc2cc(=O)oc3cc(C)ccc23)CC1	/	2.0%	4.4	/	-3.8%	/	/
CC(C)=NNc1nc(-c2ccc([N+](=O)[O-])cc2)cs1	-1%	0.3%	2.6	-8%[15.4 µM]	-0.8%	-22%	-3.9
Cc1ccc[n+](CC(=O)c2ccc(Br)cc2)c1C	7%	-0.3%	-4.3	25%	-0.2%	11%	2.6
CCc1ccc2c(c1)C(=O)C(=O)N2CC(=O)Nc1ccc(NC(=O)c2ccccn2)cc1	5%	1.6%	-1.6	11%[15.4 µM]	/	-24%	-1.5
CS(=O)(=O)N1N=C(c2ccccc2)CC1c1ccc2c(c1)OCO2 (stereo unspecified)	-23%	22%	0.1	1%	1.5%	-10%	?
COc1ccc([C@H]2CC(=O)C=C(c3ccc(SC)cc3)C2)cc1	-10%	4.1%	-0.7	-19%	-21%	/	/

Compound activity as filed in PubChem BioAssay.
